# From PubChem
# Calb FLC: C. albicans growth inhibition with fluconazole, primary screen, CaCi-2 strain, Alamar Blue fluorescence; actives 0.57% (n = 300,000); C. albicans CaCi-2 (fluconazole-resistant clinical isolate) + fluconazole, 48 h; growth inhibition, % (concentration not given with the values); AID 1979, 2009;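 active = most replicates above 75%; inconclusive = exactly half above 75%; inactive = most below 75%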;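 note: all wells also contain fluconazole at 8 µg/ml as a sub-toxic cotreatment; 0% = median of DMSO wells and 100% = median of geldanamycin control wells; wells of about 8 µL received 7.5 nL stock; the first replicate is given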
# RanGTP-Imp inh: inhibitors of RanGTP-importin-beta interaction, primary screen, biochemical, FRET, CFP-Ran, YFP-importin-beta, homogeneous. actives 1.1% (n = 300,000). Ran GTPase (GTP-bound) - importin-beta complex. inhibition, % (no concentration beside the values). AID 2216, 2009. cell-free CFP-Ran/YFP-importin-beta FRET ratio;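 active = most replicates above 15%; inconclusive = exactly half above 15%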;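 note: 0% = DMSO wells and 100% = Ran loaded with GDP instead of GTP; wells of about 40 µL received 100 nL stock; the first replicate is given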
# T cruzi repl: inhibitors of intracellular T. cruzi growth, primary screen, luminescence, NIH3T3 host cells. inhibition, % (no concentration beside the values). T. cruzi beta-gal in NIH3T3, 90 h. actives 1.4% (n = 300,000);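 active = mean inhibition across valid replicates above about 55%, limit read from the data; inconclusive = mean below that limit but half or more replicates reach it; inactive = mean below it, under half of replicates reach it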;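 note: signal also drops with host cell toxicity which is not excluded here; 0% = plate median of DMSO wells and 100% = zero luminescence signal; higher percent means less beta-gal luminescence so fewer parasites; stock transfer was 50 nL into about 50 µL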
# Ecoli rRNA inh: reduced GFP signal of wild-type E. coli, primary screen, bacterial rRNA inhibitor project, GFP/RFP fluorescence, OD600, single point; AID 720706, 2013; GFP signal change (wild-type ribosome), % (test concentration not listed); E. coli WT GFP vs humanized-ribosome RFP mutants, 24 h; active compounds read low; DMSO median 0, no signal -100; actives 1.6% (n = 350,000);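 active = significant combined selectivity score with lowered wild-type GFP, culture density cut under 30%, mutant RFP and density less affected; inactive = any of these conditions unmet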; note: one replicate is shown; some compounds called inactive have numbers as strong as hits
# Beta cell apopt: inhibitors of cytokine-induced beta cell apoptosis, primary screen, luminescence; INS-1E cytokine-induced death, ATP luminescence, 48 h; percent of positive-control rescue, neutral wells zero; protection from apoptosis, % (no concentration beside the values); actives 0.8% (n = 300,000); AID 435005, 2010;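 active = all replicates at 75% or more, or half of them and the mean; inconclusive = half reach 75% but not the mean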;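 note: 0% = cytokine-treated negative control wells and 100% = positive control rescue; higher means more ATP so stronger rescue from cytokine killing; wells of about 40 µL received 100 nL stock; the first replicate is given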
# ALR inh: inhibitors of human ALR sulfhydryl oxidase, primary screen, biochemical, H2O2 detection, HRP-luminol luminescence, single point. FAD-linked sulfhydryl oxidase ALR (Homo sapiens), P55789. purified ALR, DTT oxidation. inhibition, % (test concentration not listed). actives 3.8% (n = 290,000);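 active = mean and each replicate at 75% or more; inconclusive = only one of the two met; inactive = neither met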;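 note: stock transfer was 7.5 nL into about 7.5 µL; 0% = neutral wells and 100% = wells with inactivated enzyme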
# Target sequence (P55789 whole entry, looked up): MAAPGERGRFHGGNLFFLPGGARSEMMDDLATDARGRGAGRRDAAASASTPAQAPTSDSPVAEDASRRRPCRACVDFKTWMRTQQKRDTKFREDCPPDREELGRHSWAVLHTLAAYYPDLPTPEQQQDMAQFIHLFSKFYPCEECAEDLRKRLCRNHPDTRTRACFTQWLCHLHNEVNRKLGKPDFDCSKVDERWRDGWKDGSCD
# AF4-AF9 inh: inhibitors of AF4 peptide binding to AF9, primary screen, biochemical, AlphaScreen, biotin-AF4 peptide, FLAG-AF9, single point. AID 651704, 2012. inhibition, % at 10 µM. Protein AF-9 (Homo sapiens), P42568. actives 0.47% (n = 350,000);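 active = every replicate reaching a set inhibition limit, whatever the replicate mean, cut at about 25% in these data; inconclusive = mean inhibition reaches that limit but some replicates miss it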;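 note: 0% = plate neutral control median and 100% = total signal loss; the record names both 10 and 1 µM as test concentration; the first replicate is given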
# Target sequence (P42568 whole entry, looked up): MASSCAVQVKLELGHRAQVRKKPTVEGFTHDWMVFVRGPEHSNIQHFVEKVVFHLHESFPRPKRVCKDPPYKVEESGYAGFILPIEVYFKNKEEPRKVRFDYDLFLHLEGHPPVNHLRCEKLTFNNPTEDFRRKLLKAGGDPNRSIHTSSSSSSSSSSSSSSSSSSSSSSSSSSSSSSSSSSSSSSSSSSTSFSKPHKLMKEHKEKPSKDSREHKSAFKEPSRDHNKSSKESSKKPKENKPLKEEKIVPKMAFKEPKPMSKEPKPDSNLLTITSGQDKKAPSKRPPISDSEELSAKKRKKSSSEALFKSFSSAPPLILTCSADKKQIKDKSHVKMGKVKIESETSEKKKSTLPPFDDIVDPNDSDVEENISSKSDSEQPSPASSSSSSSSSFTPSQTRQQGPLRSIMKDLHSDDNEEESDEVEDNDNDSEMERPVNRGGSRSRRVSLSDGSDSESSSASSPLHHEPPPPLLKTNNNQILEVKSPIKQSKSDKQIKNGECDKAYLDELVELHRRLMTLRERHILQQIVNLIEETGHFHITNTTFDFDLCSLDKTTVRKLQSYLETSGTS
# FGF22 binding: binders of human FGF22 protein, primary screen, FGF22 synaptogenesis inhibitor project, biophysical, thermal shift, single point | Fibroblast growth factor 22 (Homo sapiens), Q9HCT0 | calls only at 9.99 µM | actives 1.5% (n = 340,000) | AID 651658, 2012 | recombinant FGF22 thermal shift, SYPRO orange fluorescence; percent of sucrose octasulfate shift, DMSO zero;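 active = melting point raised past a set limit in the mean and every replicate; inconclusive = no clear call; three in four hits are not shown here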
# Target sequence (Q9HCT0 whole entry, looked up): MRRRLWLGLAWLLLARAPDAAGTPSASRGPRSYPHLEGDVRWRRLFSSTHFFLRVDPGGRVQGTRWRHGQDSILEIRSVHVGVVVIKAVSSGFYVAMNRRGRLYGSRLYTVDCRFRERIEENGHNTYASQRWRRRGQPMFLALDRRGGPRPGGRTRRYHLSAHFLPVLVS
# Ecoli rRNA inh OD600: also measured in Ecoli rRNA inh; calls as there; OD600 change, %; measured here: OD600 growth;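 optical density of the mix in the first replicate; 0 = DMSO median and -100 = no signal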
# Ecoli rRNA inh RFP: recorded beside Ecoli rRNA inh, whose call it bears; RFP signal change, %; measured here: RFP humanized mutant strains;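 first replicate; 0 = DMSO median and -100 = no signal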
# Numbers without * were called inactive; i = inactive; u = inconclusive; x = no result given; + = active, no number. Only part of the results is shown (hit frequency here may not be typical).
# Abbreviations – A = Calb FLC; B = RanGTP-Imp inh; C = T cruzi repl; D = Ecoli rRNA inh; E = Ecoli rRNA inh OD600; F = Ecoli rRNA inh RFP; G = Beta cell apopt; H = ALR inh; I = AF4-AF9 inh; J = FGF22 binding
Cc1ccc(NC(=O)C2(N(CC(C)C)C(=O)Cn3nnnc3N)CCCCC2)cc1
  A: -3 | B: 4.3 | C: 2 | D: x | E: x | F: x | G: 3 | H: 5 | I: x | J: x

Cc1ccc2c(c1)N(C)/C(=C/c1cccc[n+]1CCO)S2
  A: -2 | B: 2.0 | C: u | D: 27 | E: 13 | F: 4.0 | G: 98* | H: 45 | I: 2.0 | J: i

COc1cc(CN2CCN(C(c3ccccc3)c3ccccc3)CC2)cc(OC)c1OC
  A: -2 | B: 1.9 | C: 0 | D: -18 | E: -19 | F: -1.7 | G: 12 | H: 2 | I: 6.7 | J: i

CCN(C(=O)CN1C(=O)S/C(=C\c2ccc(F)cc2)C1=O)C1CCS(=O)(=O)C1 (stereo not drawn)
  A: -1 | B: u | C: -6 | D: -2 | E: -2 | F: 1.9 | G: 3 | H: 60 | I: 0.4 | J: i

CCOc1cccc(OCCCOc2ccccc2)c1
  A: 26 | B: 5.0 | C: 7 | D: x | E: x | F: x | G: 2 | H: -14 | I: x | J: x

CCn1c(O)c(C=Nc2ccccc2)oc1=S
  A: -18 | B: -0.7 | C: 8 | D: x | E: x | F: x | G: 4 | H: 49 | I: x | J: x

CCc1cccc(NC(=O)COC(=O)/C=C/c2cccs2)c1
  A: -3 | B: 1.1 | C: -8 | D: 1 | E: 5 | F: -0.6 | G: -1 | H: -5 | I: -11 | J: i

Nc1cccc(S(=O)(=O)c2cccc(N)c2)c1
  A: -39 | B: 1.3 | C: -1 | D: x | E: x | F: x | G: -1 | H: 1 | I: x | J: x

O=C(O)c1cccc(Oc2ncnc3sc4c(c23)CCCC4)c1
  A: 32 | B: 3.6 | C: 6 | D: -9 | E: -22 | F: -5.5 | G: -2 | H: x | I: -0.9 | J: i

COC(=O)c1c(C(=O)OC)c(-c2ccc(OC)cc2)n2c1CS(=O)(=O)C2
  A: -7 | B: -1.6 | C: 0 | D: 7 | E: 0 | F: -0.1 | G: 6 | H: x | I: -0.9 | J: i

# Other entries:
# Order of results: Calb FLC | RanGTP-Imp inh | T cruzi repl | Ecoli rRNA inh | Ecoli rRNA inh OD600 | Ecoli rRNA inh RFP | Beta cell apopt | ALR inh | AF4-AF9 inh | FGF22 binding
> COc1ccc(/C=N/c2oc(C)c(C)c2C#N)c(OC)c1
 : -12 | 0.0 | -5 | 27 | 19 | 1.7 | -12 | -17 | -0.5 | i
> CCOC(=O)C1=C(C)N(CC(C)C)C(=O)C1
 : 18 | 2.6 | -13 | 12 | 9 | 1.2 | -1 | x | 1.4 | i
> CCN1CCN(c2cc(C)c3cc(NC(=S)N4CCN(c5ccccc5)CC4)ccc3n2)CC1
 : 0 | 6.5 | 58* | 6 | 15 | 24 | 27 | 20 | 5.4 | x
> COCCN(C(=O)CCCc1nc2ccccc2s1)c1c(N)n(CC(C)C)c(=O)[nH]c1=O
 : x | x | x | 8 | 12 | -0.8 | -2 | -40 | -4.5 | i
> CC(C)(C)OC(=O)N1CC=C2C(C#N)=C(N)C(C#N)(C#N)C(c3cccs3)C2C1 (stereo not drawn)
 : 22 | -3.2 | 5 | x | x | x | -1 | 2 | x | x
> COc1ccc(CCNC(=O)COC(=O)c2cc(Cl)nc(Cl)c2)cc1
 : x | x | x | 5 | 7 | 0.1 | -4 | -13 | 1.0 | i
> COC(=O)[C@@]1(Cc2ccc(OC)cc2)[C@H]2c3cc(C(=O)N(C)C)n(CCc4ccc(OC)c(Br)c4)c3C[C@H]2CN1C(=O)c1ccccc1
 : 35 | 3.0 | -3 | x | x | x | -6 | -2 | x | x
> O=C1CCN(N=Nc2cccc(Cl)c2)N1
 : -6 | 5.8 | -6 | x | x | x | -3 | 11 | x | x
> Cc1ccc(N2CCN(C(=S)Nc3ccc(Cl)cc3)CC2)cc1
 : 0 | 2.8 | 3 | -16 | -13 | -3.7 | -4 | 2 | -1.8 | i
> CCOC(=O)C1=C(CN2CCCCC2)NC(=O)NC1c1cc(C)ccc1C (stereo not drawn)
 : -32 | 4.9 | -21 | x | x | x | 0 | -10 | x | x
> CCc1ccccc1NC(=O)CN(C)Cc1c(O)ccc2ccccc12
 : 27 | 2.7 | -17 | -1 | 5 | -2.0 | -4 | -103 | 1.3 | i
> O=C(/C=C/c1ccc(Cl)cc1Cl)NCc1ccncc1
 : 34 | 2.0 | 5 | -10 | -14 | 3.6 | -5 | -3 | 4.8 | i
> CCOC(=O)c1nnn(-c2nonc2-n2cccc2)c1CN1CCOCC1
 : 17 | -2.4 | 13 | 3 | 5 | -3.8 | -4 | 3 | 8.4 | i
> CCOC(=O)c1sc(NC(=O)c2ccc(=O)[nH]c2)nc1C
 : -8 | 1.1 | -5 | 8 | 7 | 0.5 | -2 | -18 | -9.5 | i
> CCc1ccc(NS(=O)(=O)c2c(C(=O)N3CCCCCC3)c(C)n(C)c2C)cc1
 : -11 | 2.7 | 6 | -1 | -8 | 0.3 | -1 | -4 | 1.0 | i
> CN(C)S(=O)(=O)c1cccc(NC(=S)NCCc2ccccn2)c1
 : -6 | 3.3 | -5 | 9 | 7 | 1.0 | 1 | -7 | 0.5 | i
> Cc1ccc(NC(=O)c2cc(=O)c3ccccc3o2)cc1S(=O)(=O)N1CCCCC1
 : 0 | -0.7 | 36 | -16 | -41 | -4.5 | 9 | 7 | 5.2 | i
> CC(NC(=O)CSc1ncn[nH]1)c1ccc(Cl)cc1Cl (stereo not drawn)
 : 8 | -2.4 | -8 | -6 | -3 | -0.8 | x | x | -1.1 | x
> O=C(Nc1cccc(-c2cnc3ccccc3n2)c1)c1ccncc1
 : -18 | -4.2 | 4 | 0 | 9 | -0.5 | -1 | -25 | 1.8 | +
> CC(C)(C)NC(=O)COC(=O)c1ccc(Cl)cc1O
 : -6 | 1.8 | 6 | -2 | 4 | -5.9 | -3 | -2 | -3.4 | i

# 14 compounds from above, arranged by count of non-hydrogen atoms, low to high:
# Order of results: Calb FLC | RanGTP-Imp inh | T cruzi repl | Ecoli rRNA inh | Ecoli rRNA inh OD600 | Ecoli rRNA inh RFP | Beta cell apopt | ALR inh | AF4-AF9 inh | FGF22 binding
> CCOC(=O)C1=C(C)N(CC(C)C)C(=O)C1
 : 18 | 2.6 | -13 | 12 | 9 | 1.2 | -1 | x | 1.4 | i
> CCn1c(O)c(C=Nc2ccccc2)oc1=S
 : -18 | -0.7 | 8 | x | x | x | 4 | 49 | x | x
> CC(NC(=O)CSc1ncn[nH]1)c1ccc(Cl)cc1Cl (stereo not drawn)
 : 8 | -2.4 | -8 | -6 | -3 | -0.8 | x | x | -1.1 | x
> COc1ccc(/C=N/c2oc(C)c(C)c2C#N)c(OC)c1
 : -12 | 0.0 | -5 | 27 | 19 | 1.7 | -12 | -17 | -0.5 | i
> Cc1ccc(N2CCN(C(=S)Nc3ccc(Cl)cc3)CC2)cc1
 : 0 | 2.8 | 3 | -16 | -13 | -3.7 | -4 | 2 | -1.8 | i
> CN(C)S(=O)(=O)c1cccc(NC(=S)NCCc2ccccn2)c1
 : -6 | 3.3 | -5 | 9 | 7 | 1.0 | 1 | -7 | 0.5 | i
> COc1ccc(CCNC(=O)COC(=O)c2cc(Cl)nc(Cl)c2)cc1
 : x | x | x | 5 | 7 | 0.1 | -4 | -13 | 1.0 | i
> CCc1ccccc1NC(=O)CN(C)Cc1c(O)ccc2ccccc12
 : 27 | 2.7 | -17 | -1 | 5 | -2.0 | -4 | -103 | 1.3 | i
> CCOC(=O)c1nnn(-c2nonc2-n2cccc2)c1CN1CCOCC1
 : 17 | -2.4 | 13 | 3 | 5 | -3.8 | -4 | 3 | 8.4 | i
> CCN(C(=O)CN1C(=O)S/C(=C\c2ccc(F)cc2)C1=O)C1CCS(=O)(=O)C1 (stereo not drawn)
 : -1 | u | -6 | -2 | -2 | 1.9 | 3 | 60 | 0.4 | i
> CC(C)(C)OC(=O)N1CC=C2C(C#N)=C(N)C(C#N)(C#N)C(c3cccs3)C2C1 (stereo not drawn)
 : 22 | -3.2 | 5 | x | x | x | -1 | 2 | x | x
> Cc1ccc(NC(=O)c2cc(=O)c3ccccc3o2)cc1S(=O)(=O)N1CCCCC1
 : 0 | -0.7 | 36 | -16 | -41 | -4.5 | 9 | 7 | 5.2 | i
> COCCN(C(=O)CCCc1nc2ccccc2s1)c1c(N)n(CC(C)C)c(=O)[nH]c1=O
 : x | x | x | 8 | 12 | -0.8 | -2 | -40 | -4.5 | i
> CCN1CCN(c2cc(C)c3cc(NC(=S)N4CCN(c5ccccc5)CC4)ccc3n2)CC1
 : 0 | 6.5 | 58* | 6 | 15 | 24 | 27 | 20 | 5.4 | x
